Mtb growth: Mycobacterium tuberculosis H37Rv growth inhibition, putative kinase inhibitor library, confirmatory dose response (AID 2842) | 24,000 compounds, 5.2% hits | M. tuberculosis H37Rv growth inhibition; higher % means a stronger effect; some inactives read as strong as hits | inhibition, % at 10 µg/mL, or IC90 in µg/mL where a hit was titrated;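 active = confirmed in a dose series; inconclusive = mostly over 85% at the one dose but not retested; inactive = below 85% or not confirmed; about a fifth of its hits are not listed in these tables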;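 also: bacteria incubated one week before Alamar blue readout; 0% = bacteria only wells and 100% = bacteria with high antibiotic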
* hit, by the source's call; ? = inconclusive. This is a subset. The share of hits here may be higher or lower than overall.

SMILES | Mtb growth
CCOC(=O)c1nn(-c2ccc(F)cc2)c(=O)c2c(NC(=O)c3c(F)cccc3F)scc12 | -10%
COc1cc2ccccc2cc1C(=O)Nc1sc2c(c1C#N)CCN(C(C)=O)C2 | 9%
NC(=O)CSc1nc2ccsc2c(=O)n1CCc1ccccc1 | -17%
O=C(CSCCCN1C(=O)c2ccccc2C1=O)Nc1ccccc1 | -12%
Cc1ccc(C)c2[nH]c(=O)c(CCNC(=S)Nc3cccc(C(F)(F)F)c3)cc12 | -2%
COc1ccc(C=O)cc1Cn1c(=O)oc2cc(S(=O)(=O)N3CCc4ccccc4C3)ccc21 | -1%
COC(=O)COc1cccc(/C=C2\Oc3cc(OC)ccc3C2=O)c1 | 17µg/mL*
Cn1c(=O)c2c(nc(SCc3ccccc3)n2Cc2ccc(F)cc2)n(C)c1=O | -19%
CCN(CC)c1ccc(/C=N\NC(=O)c2n[nH]c3c2CCCC3)c(O)c1 | 71%
COc1ccccc1C(=O)NCCc1cc2c(OC)ccc(OC)c2[nH]c1=O | 24%
Cc1cc(SCC(N)=O)nc(=O)[nH]1 | -30%
Nc1c(C(=O)c2ccccc2)sc2nc(C3CC3)cc(-c3ccc(Cl)cc3)c12 | -7%
O=C(Nc1nnc(-c2cccnc2)o1)c1cc([N+](=O)[O-])cc([N+](=O)[O-])c1 | 77%
CCCCc1ccc(NC(=O)CSc2nc(N)c(NC(=O)c3ccc(OC)c(OC)c3)c(=O)[nH]2)cc1 | 34%
Cc1ccc(Sc2ncnc(N)c2[N+](=O)[O-])cc1 | 5%
COc1cc(-c2nnc(NC(=O)/C=C/c3cccc([N+](=O)[O-])c3)o2)cc(OC)c1OC | -4%
COC(=O)c1sc2ncnc(Nc3ccc(C)cc3)c2c1C | 58%
COC(=O)c1ccc(C(=O)Nc2sc3c(c2C(N)=O)CCN(C(C)C)C3)cc1 | -2%
CCOc1ccc(-c2nnc3c4cc5c(cc4n(Cc4cccc(C)c4)cc2-3)OCCO5)cc1 | 11%
Cc1ccc(NC(=O)CSc2ccnc(=O)[nH]2)cc1 | -15%
O=C(CSc1ccc2nnc(-c3ccccc3)n2n1)NCc1ccccc1 | 9%
COC(=O)c1ccc(C(=O)Nc2sc3c(c2C(N)=O)CCN(C(C)=O)C3)cc1 | 16%
CN1CCN(C(CC(=O)Nc2cccc(F)c2)C(=O)O)CC1 (stereo unspecified) | 4%
COc1ccc(C)c2sc(N(CCCN(C)C)C(=O)CS(=O)(=O)c3ccc(F)cc3)nc12 | 5%
CC(=O)c1sc(NC(=O)c2ccc(Br)cc2F)nc1-c1ccccc1 | 4%
CC(C)(C)C(=O)Nc1c(C(=O)Nc2ccc([N+](=O)[O-])cc2)oc2ccccc12 | 1%
Cc1ccc(NC(=O)CSc2ncnc3c2oc2ccccc23)cc1Cl | 2%
CCCCNc1nc2c(c(=O)n(C)c(=O)n2C)n1CCC | 5%
O=C1Nc2ccccc2Oc2ccc(NS(=O)(=O)Cc3ccccc3Cl)cc21 | 0%
COc1ccc(CCNc2nc(C)nc3sc4c(c23)CCCC4)cc1OC | 14%
Cc1ccc(Cc2nnc(SCC(=O)Nc3cc(C)ccc3C)n(N)c2=O)cc1 | 1%
COc1ccc(N2CC(NC(=O)c3ccc(Cl)cc3)CC2=O)cc1 (stereo unspecified) | -1%
NC(=O)CSc1nc2c(c(=O)n1-c1ccc(Cl)cc1)SCC2 | 6%
Cc1cccc(-c2nnc(NC(=O)/C=C\c3ccccc3)s2)c1 | 50%
N#C/C(=C/c1ccccc1Cl)C(=O)Nc1sc2c(c1C(N)=O)CCCC2 | -3%
COc1ccc(OC)c2[nH]c(=O)c(CCNC(=O)CCC3CCCC3)cc12 | 10%
Nc1nc(SCC(=O)Nc2ccc(Cl)c(Cl)c2)[nH]c(=O)c1NC(=O)c1ccco1 | -4%
CC(C)C(=O)Nc1cc(=O)n(C)c(=O)n1C | 1%
O=c1c2ccccc2c2cc3nc4ccccc4c(=O)n3c3cccc1c23 | -4%
O=C(Nc1cc2c3c(c1)CC(=O)N3CCC2)c1ccc(F)c(F)c1 | 14%
CCC(Sc1n[nH]c(=O)[nH]c1=O)C(=O)NN (stereo unspecified) | -1%
Cc1ccc(NC(=O)CSc2[nH]c(=O)ncc2C)cc1F | -7%
COc1ccc(C(=O)NN2C(=O)c3ccccc3C2=O)cc1 | 2%
O=C(CS(=O)(=O)c1cn(Cc2cccc(F)c2)c2ccccc12)Nc1ccccc1 | 0%
COc1ccc2nc(-c3ccc(NC(=O)C4CC4)cc3)cn2n1 | 0%
N#CC1=C(N)OC2=C(C(=O)CCC2)C1c1ccco1 (stereo unspecified) | 1%
CC(C)c1ccc2nc(Nc3nc4c(F)cccc4s3)sc2c1 | 26%
CC(=O)N1CCc2c(sc(NC(=O)c3ccc(Cl)cc3Cl)c2-c2nc3ccccc3s2)C1 | 6%
O=C(O)c1cccnc1SC1CC(=O)N(c2ccc(Cl)c(Cl)c2)C1=O (stereo unspecified) | -10%
CCOC(=O)COc1cccc2c(=O)n(CC(=O)NCc3ccccc3)ccc12 | 3%

Continued:
SMILES | Mtb growth
Cc1cc2cc(CCNC(=O)C(C)(C)Oc3ccc(Cl)cc3)c(=O)[nH]c2cc1C | ?
COc1cc(OC)cc(C(=O)Nc2nnc(-c3ccc(F)cc3)o2)c1 | 82%
COc1ccc(-n2c(O)c(C3=c4ccccc4=NC3=O)sc2=S)cc1 | 1%
O=c1oc2cc(OCc3c(F)c(F)c(F)c(F)c3F)ccc2c2c1CCC2 | -5%
CC1=C(C(=O)Nc2ccc(C)cc2)C(c2ccc(Cl)cc2)NC(=O)N1 (stereo unspecified) | 36%
CC(C)CNc1ncnc(N)c1[N+](=O)[O-] | -3%
COc1ccc(-c2nnc3ccc(SCC(=O)Nc4ccc5c(c4)OCCO5)nn23)cc1 | -8%
Cc1cccc(CN2CCc3c(OCC(=O)Nc4ccc(F)cc4)cccc3C2=O)c1 | -14%
CCOC(=O)C1=C(C)NC(=S)NC1c1ccc(OCc2ccccc2)cc1 (stereo unspecified) | 63%
NC(=O)c1ccccc1NC(=O)NC1CC(=O)N(c2ccc3c(c2)OCCO3)C1 (stereo unspecified) | -8%
Cc1ccc(S(=O)(=O)Nc2ccc(C(=O)CC3(O)C(=O)Nc4ccc(Br)cc43)cc2)cc1 (stereo unspecified) | 1%
CCOC(=O)c1nn(-c2ccc(OC)cc2)c(=O)c2c(NC(=O)c3cc4ccccc4o3)scc12 | -3%
CCc1ccc(S(=O)(=O)c2nnn3c2nc(NCc2ccc(Cl)cc2)c2ccccc23)cc1 | 1%
O=C(NNC(=O)c1ccc([N+](=O)[O-])s1)c1cccs1 | -5%
Nn1c(SCC(=O)Nc2cc(Cl)cc(Cl)c2)nnc1-c1ccco1 | -7%
O=C(NCc1nnc(SCc2cccc3ccccc23)o1)c1c(F)cccc1F | 7%
CCOc1ccc(-c2nnc3ccc(SCC(=O)O)nn23)cc1 | -5%
CCOc1ccc(S(=O)(=O)c2cn(Cc3ccccc3)c3ccc(F)cc3c2=O)cc1 | -3%
CCOC(=O)c1nn(-c2ccc(OC)cc2)c(=O)c2c(NC(=O)c3ccco3)scc12 | 4%
CCCCC(=O)Nc1nc2c(s1)CCc1ccccc1-2 | 31%
O=C(Cc1cc(=O)[nH]c(=O)[nH]1)NCCc1ccccc1 | -6%
CCOC(=O)c1c(/N=C\c2ccc(O)c([N+](=O)[O-])c2)sc2c1CCCC2 | 1%
CCOc1ccccc1NC(=O)c1oc2ccccc2c1NC(=O)C(C)Cl (stereo unspecified) | 12%
COc1cccc(N2CC(NS(=O)(=O)c3cccs3)CC2=O)c1 (stereo unspecified) | 2%
Cc1cccc(Cn2cc3c(-c4ccc(F)cc4)nnc-3c3cc4c(cc32)OCO4)c1 | 0%
Cc1ccc(-c2csc(NC(=O)c3ccc(S(=O)(=O)N4CC(C)CC(C)C4)cc3)n2)cc1C (stereo unspecified) | -4%
COc1ccc(S(=O)(=O)N2CCC(C(=O)Nc3nnc(-c4ccc(Cl)cc4)o3)CC2)cc1 | 7%
CCC1CCCCN1C(=O)CSc1nc(N)c(NC(=O)c2ccco2)c(=O)[nH]1 (stereo unspecified) | -8%
N#Cc1ccc(-c2csc(NC(=O)C3=COCCO3)n2)cc1 | 2%
COc1ccc2nc(-c3ccc(NC(=O)c4ccc(F)cc4)cc3)cn2n1 | 4%
CN(C)S(=O)(=O)c1ccc(C(=O)NCc2nnc(SCC(=O)Nc3ccc(F)cc3)o2)cc1 | -5%
COc1ccccc1NC(=O)CSc1nc(-c2ccc([N+](=O)[O-])cc2)nc2c1c(=O)n(C)c(=O)n2C | -1%
COC(=O)C1CCN(C(c2ccc(Cl)cc2)c2sc3nc(C)nn3c2O)CC1 (stereo unspecified) | -3%
COc1cc2c3nnc(-c4ccc(Cl)cc4)c-3cn(Cc3ccc(F)cc3)c2cc1OC | 37%
COc1ccc(C)c2sc(N(CCCn3ccnc3)C(=O)c3cccs3)nc12 | 2.4µg/mL*
CCOC(=O)C1CCCN(c2ncnc(N)c2[N+](=O)[O-])C1 (stereo unspecified) | -2%
COC(=O)CCSCC(=O)Nc1cc(C)on1 | -5%
COc1ccc2nc(Nc3nc4ccc(OC)cc4s3)sc2c1 | 7%
O=C(NC(=S)Nc1sc2c(c1-c1nc3ccccc3s1)CCCC2)c1ccccc1 | 12%
Cc1cccc(OCC2Cn3c(nc4c3c(=O)[nH]c(=O)n4C)O2)c1 (stereo unspecified) | -2%
Cc1ccc2nc(SCc3ccccc3)c(/C=N/O)c(=O)n2c1 | -1%
O=c1[nH]nc(SCc2c(F)cccc2Cl)c(=O)[nH]1 | 77%
CCOC(=O)c1nn(-c2ccc(OC)cc2)c(=O)c2c(NC(=O)c3ccc(S(=O)(=O)N(CC)CC)cc3)scc12 | -8%
Cn1c(=O)c2c(SCC(=O)Nc3ccc4c(c3)OCO4)nc(-c3cccs3)nc2n(C)c1=O | 4%
O=C(Nc1cccc(-c2ccc3nncn3n2)c1)c1ccc(Cl)nc1 | -12%
Nc1nc(SCC(=O)NCc2ccco2)[nH]c(=O)c1NC(=O)c1ccccc1 | 1%
CSc1nc2ccc3nc(NC(=O)C4CC4)sc3c2s1 | 0%
CC1=C(C(=O)Nc2ccccc2Cl)C(c2cccs2)NC(=O)N1 (stereo unspecified) | 3%
CC(Oc1cc2oc(=O)c3c(c2cc1Cl)CCC3)C(=O)O (stereo unspecified) | -1%
Cc1ccc(C(=O)COC(=O)c2ccc(O)cc2O)cc1 | 59%

(next part)
SMILES | Mtb growth
COc1ccc(Br)cc1-c1nc(C(N)=O)c2[nH]c(=O)n(-c3ccccc3OC)c2n1 | 6%
CCCn1c(N/N=C/c2cccnc2)nc2c1c(=O)[nH]c(=O)n2C | 8%
O=C(Nc1nc2ccc3ccccc3c2s1)c1coc2ccccc2c1=O | -12%
CCC(CO)Nc1ncnc2c1cnn2-c1ccc(C)c(Cl)c1 (stereo unspecified) | 56%
Cc1nc2c(ccc3nc(NC(=O)c4cc(-c5cccs5)nc5ccccc45)sc32)s1 | 0%
Cn1c(=O)[nH]c(=O)c2[nH]c(CN3CCN(c4cccc(Cl)c4)CC3)nc21 | 6%
O=C1CN(C(=O)c2ccccc2)C(c2ccccc2Cl)c2cc(Br)ccc2N1 (stereo unspecified) | 50%
CCOC(=O)c1ccc(NC(=O)Cn2cnc3c(cnn3-c3cccc(Cl)c3)c2=O)cc1 | -4%
O=C1c2ccccc2-c2nn(C(=O)C3CCN(S(=O)(=O)c4cccs4)CC3)c3cccc1c23 | -4%
Cc1cccc(NC(=O)CSc2nc(N)c(NC(=O)c3ccco3)c(=O)[nH]2)c1 | -12%
O=C(c1ccc(Br)o1)N1N=C(c2c(-c3ccccc3)c3cc(Cl)ccc3[nH]c2=O)CC1/C=C/c1ccccc1 (stereo unspecified) | 74%
CCOC(=O)c1nn(-c2ccc(C)cc2)c(=O)c2c(NC(=O)c3ccc([N+](=O)[O-])cc3)scc12 | -1%
NC(=O)c1oc2ccccc2c1NC(=O)c1cc(=O)c2ccccc2o1 | 4%
C=CCn1c(=O)c2c(nc3n(Cc4ccccc4)c(C)cn23)n(C)c1=O | -6%
O=C(Nc1nnc(-c2ccco2)o1)c1ccc(Oc2ccccc2)cc1 | <0.2µg/mL*
COc1ccccc1C(=O)Nc1sc2c(c1C#N)CCN(C(C)=O)C2 | 2%
COc1ccc2nc(NC(=O)c3ccc4c(c3)OCCO4)sc2c1 | -8%
COc1cccc(NC(=O)CSc2ccc(-c3sc(C)nc3C)nn2)c1 | -5%
